# ALR inh: human ALR oxidase inhibition via reduced H2O2. inhibition, % (no concentration beside the values). purified ALR, DTT oxidation, H2O2 HRP-luminol luminescence. 3.8% of 290,000 active. P55789;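 active = mean and each replicate at 75% or more; inconclusive = only one of the two met; inactive = neither met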;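 also: stock transfer was 7.5 nL into about 7.5 µL; 0% = neutral wells and 100% = wells with inactivated enzyme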
# Target sequence (P55789 whole entry, looked up): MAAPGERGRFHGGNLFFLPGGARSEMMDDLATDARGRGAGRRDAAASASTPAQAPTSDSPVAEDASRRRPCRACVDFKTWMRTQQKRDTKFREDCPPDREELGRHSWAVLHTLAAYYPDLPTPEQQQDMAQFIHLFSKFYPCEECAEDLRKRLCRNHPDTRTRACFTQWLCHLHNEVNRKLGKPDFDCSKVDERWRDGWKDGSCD
# AF4-AF9 inh: inhibitors of human MLL-AF4/AF9 interaction; P42568; AlphaScreen, biotin-AF4 peptide binding to FLAG-AF9; inhibition, % at 10 µM; 0.47% of 350,000 active; AID 651704;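 active = every replicate reaching a set inhibition limit, whatever the replicate mean, cut at about 25% in these data; inconclusive = mean inhibition reaches that limit but some replicates miss it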;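 also: 0% = plate neutral control median and 100% = total signal loss; the record names both 10 and 1 µM as test concentration; the first replicate is given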
# Target sequence (P42568 whole entry, looked up): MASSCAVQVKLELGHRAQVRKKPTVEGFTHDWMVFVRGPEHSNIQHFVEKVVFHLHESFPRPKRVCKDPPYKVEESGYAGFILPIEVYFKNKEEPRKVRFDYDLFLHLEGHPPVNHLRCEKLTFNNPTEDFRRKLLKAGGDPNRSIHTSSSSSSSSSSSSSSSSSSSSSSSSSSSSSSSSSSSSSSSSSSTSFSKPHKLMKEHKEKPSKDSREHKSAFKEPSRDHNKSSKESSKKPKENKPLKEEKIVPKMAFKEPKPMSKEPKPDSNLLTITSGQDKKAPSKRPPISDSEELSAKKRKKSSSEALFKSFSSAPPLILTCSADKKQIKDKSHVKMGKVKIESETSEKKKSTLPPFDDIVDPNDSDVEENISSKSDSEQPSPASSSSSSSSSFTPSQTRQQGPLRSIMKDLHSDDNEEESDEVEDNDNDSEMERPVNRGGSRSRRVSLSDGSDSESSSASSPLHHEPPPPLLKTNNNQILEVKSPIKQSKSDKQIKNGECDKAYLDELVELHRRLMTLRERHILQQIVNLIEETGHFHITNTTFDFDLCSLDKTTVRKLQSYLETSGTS
# rRNA inh HTS: selective bacterial rRNA inhibition in E. coli. 1.6% of 350,000 active. AID 720706. GFP signal change (wild-type ribosome), % (test concentration not listed). E. coli WT GFP vs humanized-ribosome RFP mutants, fluorescence, 24 h; stronger effect = lower value; DMSO median 0, no signal -100;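 active = significant combined selectivity score with lowered wild-type GFP, culture density cut under 30%, mutant RFP and density less affected; inactive = any of these conditions unmet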; also: one replicate is shown; some compounds called inactive have numbers as strong as hits
# Vif TR-FRET: inhibitors of Vif binding to APOBEC3G peptide, primary screen, biochemical, TR-FRET, GST-Vif 1-94, biotin-A3G peptide, dose response retest (AID 1117319). inhibition, %; hits with a dose series show IC50 in µM. 0.57% of 260,000 active. TR-FRET GST-Vif / biotin-A3G peptide binding; higher % means a stronger effect; test concentration not given here; strong numbers were not always called active;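 active = above the screen mean plus three standard deviations and confirmed in dose response; inconclusive = results disagree or hit not tested in dose response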;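 also: Vif residues 1-94 fused to GST binding biotinylated APOBEC3G peptide 110-148; 0% = full assay without inhibitor and 100% = GST in place of GST-Vif; retest series ran down from 100 µM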
# Ecoli growth: E. coli growth inhibition. 0.21% of 330,000 active. OD600 absorbance (no concentration beside the values). Escherichia coli growth, OD600, 23 h; stronger effect = lower value;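 active = OD600 absorbance below the run mean of sample wells minus 3.6 SD, in any replicate, cut at about 0.56 in these data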;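 also: stock transfer was 300 nL into about 60 µL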
# HNF4A DNA FP: change in binding of human HNF4 alpha to DNA; activity change, % at 10 µM; HNF4a-FITC DNA binding, fluorescence polarization, 1 h; 0.3% of 360,000 active; P41235; AID 1224865; in the data active = activity change above about 30%, passing the limit was not always enough;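 also: controls were the assay level and a saturating level of protein; the project sought stronger binding though the title names inhibitors; some compounds called inactive have numbers as strong as hits; positive values seem to mean higher polarization but the record does not say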
# FGF22 binding: binders of recombinant human FGF22 by thermal shift. SYPRO orange fluorescence; percent of sucrose octasulfate shift, DMSO zero. Q9HCT0. AID 651658. 1.5% of 340,000 active. calls only at 9.99 µM;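 active = melting point raised past a set limit in the mean and every replicate; inconclusive = no clear call; three in four hits are not shown here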
# Target sequence (Q9HCT0 whole entry, looked up): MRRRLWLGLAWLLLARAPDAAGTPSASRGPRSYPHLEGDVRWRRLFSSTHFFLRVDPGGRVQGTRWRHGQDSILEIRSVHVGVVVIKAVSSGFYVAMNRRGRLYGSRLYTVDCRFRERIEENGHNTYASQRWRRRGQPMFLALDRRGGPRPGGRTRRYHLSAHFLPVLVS
# rRNA inh HTS OD600: recorded beside rRNA inh HTS, whose call it bears; OD600 change, %; measured here: OD600 growth;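 optical density of the mix in the first replicate; 0 = DMSO median and -100 = no signal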
# rRNA inh HTS RFP: second read-out of rRNA inh HTS, no call of its own (marks repeat the call); RFP signal change, %; measured here: RFP humanized mutant strains;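 first replicate; 0 = DMSO median and -100 = no signal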
# Active calls of the source: *; i = inactive; u = inconclusive; x = no result given. These rows are one share of the data. The share of hits here may be higher or lower than overall.
cpd	structure	FGF22 binding	rRNA inh HTS OD600	Ecoli growth	ALR inh	AF4-AF9 inh	HNF4A DNA FP	Vif TR-FRET	rRNA inh HTS	rRNA inh HTS RFP
1	N#CC(Br)Br	i	4	0.67	-37	x	5.7	x	-3	-1.4
2	O=c1[nH]c2ccccc2n1C1CCN(C(c2cccc3ccccc23)c2nnnn2-c2ccc3c(c2)OCCO3)CC1 (stereo unspecified)	i	16	x	x	4.2	-2.0	x	18	0.1
3	Cn1c(O)c(/C=C/C=Nc2ccccc2)c(=O)n(C)c1=O	x	x	0.63	-2	x	86*	14%	x	x
4	CC(Cc1ccccc1)NCc1ccccc1O (stereo unspecified)	i	-1	0.67	x	-3.7	-3.3	x	14	-1.4
5	CCCC1(CC(C)CC)C(=O)NC(=O)NC1=O (stereo unspecified)	i	10	x	x	-3.7	3.0	1%	10	6.6
6	Cc1cc(C)cc(N2C(=O)NC(=O)/C(=C\c3cccn3-c3ccc(Cl)cc3)C2=O)c1	x	x	x	98*	x	0.3	27%	x	x
7	C=CCn1c(O)c(C(C)=Nc2ccc(N(C)C)cc2)c(=O)[nH]c1=O	x	x	0.68	5	x	-1.1	u	x	x
8	O=[N+]([O-])/C=C1/NCCN1Cc1ccc(Cl)nc1	i	7	0.7	-5	-1.6	-3.0	1%	9	-0.6
9	Cc1ccc2c(c1Cl)NC(C(=O)O)C1CC(Sc3ccccc3[N+](=O)[O-])C(Cl)C21 (stereo unspecified)	x	x	0.71	u	x	-25	u	x	x
10	C[n+]1c(-c2ccccc2)c2cc(N)ccc2c2ccc(N)cc21	i	x	0.57	99*	55*	-47	x	x	x
11	Cn1c(=O)c2c(ncn2CCCl)n(C)c1=O	i	x	0.73	-6	-1.9	-3.3	23%	x	x
12	CCCCn1c(O)c(C(C)=NCc2cccnc2)c(=O)[nH]c1=O	i	11	0.68	-1	-2.5	0.4	1%	6	-0.8
13	CN(C)c1cc[n+](CC(O)C[n+]2ccc(N(C)C)cc2)cc1	i	7	0.69	28	-2.3	1.2	x	8	-5.3
14	CC1([N+](=O)[O-])COP(=O)(Nc2cccc(F)c2)OC1 (stereo unspecified)	i	1	x	x	-1.8	-1.8	2%	7	-0.5
15	COC(=O)C1=C(c2ccc(C(C)=O)cc2)C[C@@H]2CC[C@H]1N2C(=O)N1CCC(O)(c2ccc(Cl)cc2)CC1	i	-16	x	-2	6.3	5.9	x	-15	11
16	Clc1cccc(Cl)c1Cl	i	-2	0.67	-3	x	-1.9	x	-4	-0.9
17	CNC(C(=O)c1ccccc1)C(OC)c1ccccc1 (stereo unspecified)	x	x	0.72	-3	x	0.7	-10%	x	x
18	CC(=O)NC(C)Cc1ccccc1 (stereo unspecified)	x	x	0.69	1	x	-0.3	-5%	x	x
19	CN1C(=O)/C(=C/c2ccc(Cl)s2)C(=O)NC1=S	i	9	x	58	0.5	3.3	x	7	7.3
20	CC(C)OC12Oc3ccccc3C=C1N1CCC2CC1 (stereo unspecified)	x	x	0.73	-4	x	1.0	2%	x	x
21	CCCCn1c(O)c(C(CC)=NCCc2ccccc2)c(=O)[nH]c1=O	x	x	0.71	-4	x	0.4	2%	x	x
22	COC(=O)C1=C(c2ccc(OCc3ccccc3)cc2)C[C@@H]2CC[C@H]1N2C(=O)NCc1ccc(Cl)cc1	i	5	x	x	-0.4	-4.2	-6%	4	-1.8
23	CCOC(=O)c1ccc2[nH]c(-c3ccc(S(=O)(=O)F)cc3)cc(=O)c2c1	i	20	x	-17	3.5	-1.6	-8%	5	2.0
24	COC(=O)C1=C(c2ccc(F)cc2F)C[C@@H]2CC[C@H]1N2C(=O)N1CCOCC1	i	4	x	-2	1.6	-3.6	x	6	-3.4
25	CC(C)CN1CCN(Cc2ccccc2C(F)(F)F)CC1CCO (stereo unspecified)	i	13	0.68	-10	-1.1	-2.3	4%	14	0.8
26	Cc1ccc(NC(=O)CCNC(=O)N2C[C@H]3C[C@@H](C2)c2cccc(=O)n2C3)c(C)c1	i	x	0.75	-15	-0.4	0.8	x	x	x
27	O=c1[nH]c(=O)n(-c2ccc(F)cc2)c(O)c1/C=C1\C=Nc2ccccc21	i	16	x	1	1.8	0.5	4%	19	1.9
28	COc1ccccc1N(CC(=O)NC1CCCCC1)C(=O)c1cnn(C(C)C)c1	x	x	0.66	-15	x	0.1	10%	x	x
29	O=[N+]([O-])c1cc(F)c(N2CCCC2)cc1N1CCNCC1	x	x	0.62	-16	x	x	-5%	x	x
30	COc1ccc(CN2CCN(Cc3ccccc3OC)CC2)cc1	i	12	0.64	-12	2.8	3.8	x	2	-2.3
31	O=C(O)CCC(=O)NCCC1=c2ccccc2=N/C1=C\c1c(O)n(Cc2ccc(F)cc2)c(=S)[nH]c1=O	i	1	0.7	24	-7.5	3.5	10%	2	16
32	CCC(=NCCCn1ccnc1)c1c(O)n(-c2ccc(OC)cc2)c(=O)[nH]c1=O	i	6	0.63	-3	0.8	0.3	-5%	11	1.6
33	CC12CN3CC(C)(CN(C1)C31CCOCC1)C2=O	x	x	0.74	1	-0.9	-0.7	-2%	x	x
34	COc1ccc(OCC(=O)N2CCN(C/C=C/c3ccccc3)CC2)cc1	i	-8	0.69	-3	3.5	-6.2	x	-2	7.4
35	CC1=C(C)CC2(C(=O)NC(=S)NC2=O)C(C)C1 (stereo unspecified)	i	6	x	x	-6.6	-3.1	0%	18	7.4
36	CCOc1cccc(CNCCc2c(C)[nH]c3ccc(OC(F)(F)F)cc23)c1O	i	-79	x	10	40*	0.6	x	-57	-18
37	Cc1ccccc1-c1ccc([C@@H]2[C@H](CO)N3CCCCN(C(=O)Cc4ccccn4)C[C@@H]23)cc1	i	-5	x	x	1.9	x	x	-2	2.9
38	C=CCOc1ccc(CC2C(=O)N(C)C(=O)N(C)C2=O)cc1	x	x	0.68	19	x	-9.5	67%	x	x
39	C/C=C/CC#N	i	4	0.68	-13	x	1.1	x	5	-0.3
40	CCc1ccccc1N1C(=O)/C(=C/c2ccc(N3CCN(C)CC3)o2)C(=O)NC1=S	i	3	0.66	x	-0.9	55*	u	11	2.9

# Only FGF22 binding, ALR inh and Vif TR-FRET, for six of the compounds above:
nr | SMILES | FGF22 binding | ALR inh | Vif TR-FRET
1 | N#CC(Br)Br | i | -37 | x
2 | O=c1[nH]c2ccccc2n1C1CCN(C(c2cccc3ccccc23)c2nnnn2-c2ccc3c(c2)OCCO3)CC1 (stereo unspecified) | i | x | x
3 | Cn1c(O)c(/C=C/C=Nc2ccccc2)c(=O)n(C)c1=O | x | -2 | 14%
4 | CC(Cc1ccccc1)NCc1ccccc1O (stereo unspecified) | i | x | x
5 | CCCC1(CC(C)CC)C(=O)NC(=O)NC1=O (stereo unspecified) | i | x | 1%
6 | Cc1cc(C)cc(N2C(=O)NC(=O)/C(=C\c3cccn3-c3ccc(Cl)cc3)C2=O)c1 | x | 98* | 27%

# Compounds listed so far with a CF3 group:
cpd	structure	FGF22 binding	rRNA inh HTS OD600	Ecoli growth	ALR inh	AF4-AF9 inh	HNF4A DNA FP	Vif TR-FRET	rRNA inh HTS	rRNA inh HTS RFP
25	CC(C)CN1CCN(Cc2ccccc2C(F)(F)F)CC1CCO (stereo unspecified)	i	13	0.68	-10	-1.1	-2.3	4%	14	0.8
36	CCOc1cccc(CNCCc2c(C)[nH]c3ccc(OC(F)(F)F)cc23)c1O	i	-79	x	10	40*	0.6	x	-57	-18

# More entries follow:
cpd	structure	FGF22 binding	rRNA inh HTS OD600	Ecoli growth	ALR inh	AF4-AF9 inh	HNF4A DNA FP	Vif TR-FRET	rRNA inh HTS	rRNA inh HTS RFP
41	CC(=O)Nc1ccccc1C(=O)OCC(=O)Nc1ncccn1	i	3	0.7	-9	-2.1	-4.0	x	3	-4.2
42	CSCCC(c1nnnn1C(C)(C)C)N1CCC2(CC1)C(=O)NCN2c1ccccc1 (stereo unspecified)	i	12	x	x	11	1.6	x	16	2.9
43	Cn1c2ccccc2c2c(C(=O)N3CCC4(CC3)OCCO4)cn(C3CCCC3)c(=O)c21	x	x	0.7	-2	x	-2.9	-2%	x	x
44	Cc1ccc2nc3c(cc2c1)CC1(C(=O)N(C)C(=O)N(C)C1=O)C1CCCCN31 (stereo unspecified)	x	x	0.71	-57	x	-1.0	72%	x	x
45	CC(=O)[C@H]1CC[C@H]2[C@@H]3CC[C@H]4C[C@H](O)CC[C@]4(C)[C@H]3C(=O)C[C@]12C	i	-74	x	-20	-12	3.1	x	-53	-8.8
46	CC(C)(C)n1nnnc1C(C1CC1)N1CCC(n2c(=O)[nH]c3ccccc32)CC1 (stereo unspecified)	i	29	x	x	10	1.2	x	30	1.5
47	Cn1c(=O)n(CC(=O)N2CCC3(CC2)OCCO3)c(=O)c2ccccc21	x	x	0.67	-6	x	0.9	-1%	x	x
48	C=CCn1c(O)c(C(CC)=NCC2CCCO2)c(=O)[nH]c1=O (stereo unspecified)	i	4	0.64	-14	3.8	-0.9	-5%	2	1.1
49	COC(=O)c1ccc(C(C(=O)NC2CCCCC2)N(CCN2CCOCC2)C(=O)Cc2cccs2)cc1 (stereo unspecified)	i	26	0.71	-5	-0.7	-1.5	x	26	3.1
50	COC(=O)C1=C(c2c(C)noc2C)C[C@@H]2CC[C@H]1N2C(=O)NC1Cc2ccccc2C1	i	1	0.73	5	-10	-2.5	x	-7	-8.7
51	CCC(=O)c1ccc(OC(=O)N(C)c2ccccc2)cc1	i	8	0.67	-3	-1.1	-0.4	2%	12	0.8
52	Cn1c(O)c(C=NCc2cccs2)c(=O)n(C)c1=O	i	14	0.63	-4	-5.3	-2.2	3%	-2	-2.2
53	CC(O)(CS(=O)(=O)c1cccc(C(F)(F)F)c1)C(=O)Nc1cccc(C(F)(F)F)c1 (stereo unspecified)	x	x	0.69	1	x	-1.7	-1%	x	x
54	COC(=O)C1=C(c2c(C)noc2C)C[C@@H]2CC[C@H]1N2C(=O)N1CCOCC1	i	19	x	5	0.1	-0.3	x	5	2.9
55	Cc1[nH]n(-c2ccccc2)c(=O)c1C(c1ccc([N+](=O)[O-])cc1)c1c(C)[nH]n(-c2ccccc2)c1=O	x	x	0.63	-17	x	1.2	x	x	x
56	Clc1ccccc1C1=NCc2nncn2-c2sc(Br)cc21	i	-5	0.63	0	-0.9	1.3	x	4	-1.1
57	Cc1ccccc1CN1CCNCC1	i	12	0.7	-8	3.1	3.2	x	14	0.8
58	COc1ccc(C(=O)N/N=C/C23CC[C@@H](O)CC2(O)CC[C@@H]2[C@@H]3CCC3(C)C(C4=CC(=O)OC4)CCC23O)cc1 (stereo partly specified)	i	-7	x	x	3.4	3.5	86µM*	10	-3.8
59	CCCCn1nnnc1C(CCSC)N1CCC(n2c(=O)[nH]c3ccccc32)CC1 (stereo unspecified)	i	-16	x	x	7.4	1.6	x	-3	-1.0
60	CC(C)(C)[C@]1(O)C[C@@H]2OC(=O)C[C@@]23C(=O)O[C@@H]2OC(=O)[C@@H](O)C213 (stereo partly specified)	i	15	0.7	1	-1.6	-3.4	x	21	-2.4
61	CCOC(=O)[C@]12Cc3c(cc(OC)c(OC)c3OC)[C@H]1N(C(C)C)C(=O)c1ccccc12	i	-9	x	x	2.4	2.9	x	-9	3.2
62	COc1ccc(O)c(CN2CCCC(C(=O)c3ccccc3SC)C2)c1 (stereo unspecified)	i	-8	0.64	u	18	1.8	u	-5	-1.3
63	CC[C@H]1CN(C)C[C@@]2(C(=O)OC)Cc3c([nH]c4ccccc34)C(=O)C[C@@H]12	i	5	0.74	-52	2.6	-1.5	x	0	0.6

# Screening results (PubChem)
